PINK1 expr mod – A Quantitative High throughput Screen to Identify Chemical Modulators of PINK1 Expression. Potency, µM (highest dose often 76.6 µM), for inactives: at the highest dose activation (PINK1 increase), hits mostly activators. 410,000 compounds, 0.2% hits. PINK1 immunofluorescence, high-content cytometry, 24 h. AID 624263, 2012; active = well fitted activation curve with a large enough effect; inconclusive = small, poorly fitted or top-dose-only effect; inactive = flat fitted curve, though single readings scatter; cell line not stated here;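 also: potency is read from the fitted curve at half-maximal effect; % of control where 0% means no effect; nearly all actives have a fitted effect of over 65% in size; a mitochondrial uncoupler was the plate control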
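Stable cell line treated 24 h with compounds at 5 concentrations (CCCP controls), then fixed and immunostained for PINK1 plus nuclear and cell stains; PINK1 immunofluorescence quantified by laser-scanning microplate cytometry.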
D2 ag – Beta-Arrestin HTS for Positive Allosteric Modulators of the Human D2 Dopamine Receptor: Agonists; 360,000 compounds, 0.084% hits; D(2) dopamine receptor (Homo sapiens), P14416; AID 624465, 2012; activation, % (test concentration not listed); DiscoveRx PathHunter D2 beta-arrestin, luminescence, 90 min; 100% = 57 uM dopamine signal; in the data active = activation above about 40%; inconclusive = about 15% to 40%; inactive = below about 15%; also: compound concentration not given in the record; the text of the record calls up to 30% inactive
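DiscoveRx PathHunter D2 beta-arrestin cells (2,100/well) attached overnight, then compound-stimulated 90 min at 37 C in HBSS/10 mM HEPES/0.1% Tween-20 buffer; beta-galactosidase complementation read by luminescence after 1 h at ambient temperature. Dopamine 57 uM final (EC100) as control.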
D2 PAM – Beta-Arrestin HTS for Positive Allosteric Modulators of the Human D2 Dopamine Receptor: Potentiators. potentiation, % (concentration not given with the values). D(2) dopamine receptor (Homo sapiens), P14416. DiscoveRx D2 beta-arrestin cells, luminescence, 90 min; 100% = 57 uM dopamine signal. AID 624464, 2012. 360,000 compounds, 0.23% hits; active = potentiation of 50% or more; inconclusive = 30% to 50%; inactive = 30% or less;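 also: tested on top of an EC20 dose of dopamine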
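PathHunter D2 cells, attached overnight at 37 deg C, received compound in DMSO plus dopamine at EC20 (50 nM final) for 90 min at 37 deg C. Beta-arrestin recruitment was read as luminescence after 1 h with detection reagent at ambient temperature.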
Six1-Eya2 inh – qHTS Assay for Inhibitors of the Six1/Eya2 Interaction | AlphaScreen GST-Six1/His-Eya2 binding, biochemical; stronger effect = lower value; control for the full effect not named in the record | activity change, % (no concentration beside the values) | 360,000 compounds, 0.56% hits; in the data active = activity change below about -65%; inconclusive = about -30% to -65%; inactive = above about -30%; also: % is scaled to controls: 0 for no effect and ±100 for the full control effect
Target sequence (O00167 whole entry, looked up): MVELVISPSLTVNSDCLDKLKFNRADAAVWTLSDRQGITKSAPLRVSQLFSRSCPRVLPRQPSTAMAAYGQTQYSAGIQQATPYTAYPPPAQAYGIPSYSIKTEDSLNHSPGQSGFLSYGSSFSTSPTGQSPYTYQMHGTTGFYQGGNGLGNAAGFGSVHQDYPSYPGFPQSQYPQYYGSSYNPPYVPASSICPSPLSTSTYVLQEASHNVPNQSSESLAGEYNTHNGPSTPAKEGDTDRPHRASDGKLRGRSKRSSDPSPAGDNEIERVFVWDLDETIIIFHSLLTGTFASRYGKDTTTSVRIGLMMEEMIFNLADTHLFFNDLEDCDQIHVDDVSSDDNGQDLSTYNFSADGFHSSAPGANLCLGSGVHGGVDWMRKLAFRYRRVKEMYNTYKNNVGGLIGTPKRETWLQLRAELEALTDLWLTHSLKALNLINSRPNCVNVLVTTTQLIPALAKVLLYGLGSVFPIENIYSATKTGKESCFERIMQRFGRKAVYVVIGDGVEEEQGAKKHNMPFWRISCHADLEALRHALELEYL
Target sequence (Q15475 whole entry, looked up): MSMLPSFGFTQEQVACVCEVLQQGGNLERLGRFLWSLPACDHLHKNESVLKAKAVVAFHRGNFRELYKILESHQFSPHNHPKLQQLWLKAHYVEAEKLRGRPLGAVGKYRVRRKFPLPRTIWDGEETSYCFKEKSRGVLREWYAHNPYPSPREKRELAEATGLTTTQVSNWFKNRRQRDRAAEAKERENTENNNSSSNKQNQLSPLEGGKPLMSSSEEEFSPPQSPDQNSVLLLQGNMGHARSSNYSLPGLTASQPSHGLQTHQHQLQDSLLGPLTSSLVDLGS
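AlphaScreen with GST-Six1 and His-Eya2 (5X mix: 250 nM and 500 nM), glutathione donor and nickel acceptor beads; buffer 50 mM Tris pH 8.0, 300 mM NaCl, 1 mM TCEP; 1 h at 37 C in the dark.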
CtBP-E1A blk – qHTS Assay for Inhibitors of the CtBP/E1A Interaction. activity change, % (test concentration not listed). 340,000 compounds, 0.49% hits. AlphaScreen GST-E1A/His-CtBP binding, 1536-well; stronger effect = lower value; control for the full effect not named in the record. AID 651724, 2012. CtBP / adenovirus E1A interaction (AlphaScreen); in the data active means activity change below about -65%; inconclusive means about -30% to -65%; inactive means above about -30%; also: % is scaled to controls: 0 for no effect and ±100 for the full control effect
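AlphaScreen with 125 nM GST-E1A and 125 nM His-CtBP (5X stocks) in Tris pH 8.0, 300 mM NaCl, BSA, Tween 20, TCEP. Compounds preincubated 2 h at 37 deg C, then glutathione donor/nickel acceptor beads added for 1 h at 37 deg C in dark.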
TRPML1 agonist – qHTS for Agonists of the Human Mucolipin Transient Receptor Potential 1 (TRPML1); TRPML1-expressing cells, Ca2+ dye fluorescence, FDSS; host cell line not named in the record; reference of the full effect not given here; AID 624414, 2012; Mucolipin-1 (Homo sapiens), Q9GZU1; 410,000 compounds, 0.12% hits; activation, % (test concentration not listed); in the data active = activation above about 50%; inconclusive = about 30% to 50%; inactive = below about 30%; also: 0% is about no effect; the text of the record puts the active cut at 80%
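Tetracycline-induced TRPML1-DL cells are seeded and incubated overnight before loading with a no-wash Ca2+ dye and quencher. Agonist activity is taken from the 110 s fluorescence read following compound pin-transfer on an FDSS, before EC80 54-4 challenge.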
An asterisk follows results filed as active; ? = inconclusive; . = not tested or not shown; [ ] = remark or other dose. No enrichment for hits, and some 1.3% of all compounds hit somewhere here.

Below each SMILES: TRPML1 agonist	PINK1 expr mod	Six1-Eya2 inh	D2 ag	D2 PAM	CtBP-E1A blk
CC(C)c1ccc(OCC(=O)NC2CC(C)(C)NC(C)(C)C2)c(Br)c1
    -0.4	3.8%	0	0.0	-8	4
CCNc1nc(NCC)n2c(SCC(=O)Nc3cccc(Cl)c3)nnc2n1
    2.2	2.1%	-23	1.0	1	0
CCNC(=S)N1CCN(S(=O)(=O)c2cccc(C(F)(F)F)c2)CC1
    0.8	-0.8%	-15	-1.9	-13	0
COc1cc2c(cc1OC)C(C)N(C(=O)CCNC(=O)c1ccccc1)CC2 (stereo not given)
    -0.2	0.9%	3	-1.7	-11	-7
COc1cccc(C(=O)N(c2ccccc2)C2C=CS(=O)(=O)C2)c1 (stereo not given)
    -0.8	0.0%	16	1.2	1	.
CSc1ncnc2c1ccn2CC(=O)Nc1ccc(C)c(C)c1
    -0.3	9.6%	2	-0.9	2	3
O=C(O)CCC(=O)NCCc1cccc(Cl)c1
    -0.4	-0.7%	8	0.6	-1	4
CC(C)CN1C2CCCC1CC(NC(=O)c1ccc([N+](=O)[O-])cc1)C2 (stereo not given)
    -0.2	-1.6%	14	5.2	-4	0
C[C@@H]1CC2OC(=O)[C@@]3(C)C(=O)CC[C@@](C)(C23)[C@@]1(O)CCc1ccoc1 (stereo not given in full)
    1.4	3.9%	2	-1.3	1	-3
CCc1cccc(CC)c1N1C(=O)CC(Sc2ccccc2N)C1=O (stereo not given)
    0.0	11%	4	-2.5	-5	4
Cc1ccc(C(=O)Oc2coc(CSc3nnc(NC(=O)c4cccs4)s3)cc2=O)cc1C
    1.2	3.3%	-11	-1.3	-18	-17
CN(C)c1cccc(C(=O)Nc2nc3ccccc3[nH]2)c1
    -0.6	4.8%	?	3.3	1	-20
C=CCOc1c(Cl)cc(CNCCCN2CCOCC2)cc1OC
    -0.6	-1.6%	4	4.7	3	12
CN1CCN(/N=C/c2ccc(-c3ccc([N+](=O)[O-])cc3Cl)o2)CC1
    20	1.5%	-19	-6.8	-5	-22
O=C(CN(c1cccc([N+](=O)[O-])c1)S(=O)(=O)c1ccccc1)NCc1ccccc1
    -0.6	1.7%	-2	-1.1	-2	7
CC1=Nn2c(nnc2-c2ccc(F)cc2)SC1
    -0.8	-4.6%	-1	-0.4	7	2
O=C(NCCNC(=O)c1cc(Cl)ccc1Cl)c1ccccn1
    0.6	3.0%	-6	-2.8	-6	4
O=[N+]([O-])c1ccc(N2CCNCC2)c(S(=O)(=O)N2CCOCC2)c1
    0.9	-2.9%	-4	-0.7	-14	-13
CC1CC1C(=O)OCC(=O)NCc1ccccc1 (stereo not given)
    1.8	0.1%	7	-2.5	-3	3
COc1cccc(/C=C/C(=O)OCC(=O)NCCC2=CCCCC2)c1
    -0.3	-2.1%	7	-0.4	-1	-4
COC(=O)c1c(Cl)c2n3ccccc3c(C)c(-c3ccccc3)c-2c1C(=O)OC
    -1.6	11%	-68*	-11	-18	?
C=CCn1c(CSCc2ccc(C)cc2)nnc1SCC(=O)NCc1ccccc1
    0.5	1.2%	0	-4.1	-9	5
COc1ccc(-c2ccc3c(N)c(C(=O)c4cccc(OC)c4)sc3n2)cc1
    1.7	?	16	1.1	-1	18
COc1ccc(Cl)cc1NC(=O)CCN1C(=O)C2CC=CCC2C1=O (stereo not given)
    -0.4	-1.9%	20	-2.5	-2	-7
Cc1ccccc1N1CCN(c2ncnc3scc(-c4cccs4)c23)CC1
    0.8	-2.4%[38.3 µM]	0	1.3	-5	-2
C#CCSc1nnc(-c2ccccc2)c(=O)[nH]1
    -1.1	-0.1%	2	-5.2	-4	5
CC(=O)N1CCC2(CC1)C(C#N)=C(N)Oc1n[nH]c(CSc3ccc(C)cc3)c12
    1.0	5.4%[38.3 µM]	0	-1.4	-11	-1
CC1CCN(CC(=O)Nc2ccc(Cl)cc2[N+](=O)[O-])CC1
    -0.6	27%	-14	-2.7	3	-2
Cc1ccc(NC(=O)C(C)OC(=O)CCN=C2NS(=O)(=O)c3ccccc32)cc1 (stereo not given)
    0.0	0.7%	-1	1.1	0	4
Cc1ccc2nc(NC(=O)COC(=O)c3ccncc3)sc2c1
    -0.5	0.0%	-1	1.2	2	1
CCCNC(=O)NC(=O)CSc1nc2ccccc2n1CC(C)C
    2.1	3.4%[38.3 µM]	-1	0.0	2	-2
O=C(CSc1nc2c(sc3ccccc32)c(=O)n1CCO)NCC1CCCO1 (stereo not given)
    0.3	0.4%	5	-0.5	5	6
CN(CC(=O)Nc1ccc(F)cc1)S(=O)(=O)c1ccc2c(c1)c(=O)n(C)c(=O)n2C
    -0.7	2.2%	0	-7.6	-9	2
O=C(NC1=CC(=O)c2ccccc2C1=O)c1ccccc1
    0.5	-1.0%	0	5.0	-9	-20
Cn1cccc1C(=O)NC(=O)COC(=O)c1ccccc1Sc1ccccc1C#N
    0.1	-1.0%	-6	-1.4	-2	0
CNC(=O)C1CCN(S(=O)(=O)c2c(C)noc2/C=C/c2cccc(C)c2)CC1
    0.6	4.9%	4	-2.7	6	0
Cc1ccc(/C=N/NC(=O)c2cc3c(ccc4ccccc43)o2)o1
    4.2	2.3%	-7	11	-12	-10
COc1ccc(C(=O)CC(c2ccccc2)C2C(=O)CCCC2=O)cc1 (stereo not given)
    0.3	2.6%[38.3 µM]	-2	-2.9	-2	5
Cc1cccc(-n2ccnc2SCC(=O)Nc2nccs2)c1C
    0.3	-1.7%	-14	-2.3	-12	-8
C=CCSc1nc2c(c(C3CC=CCC3)c1C#N)CCC2 (stereo not given)
    4.8	2.7%	28	-4.8	-10	21
O=C(NCCN1CCOCC1)c1cc([N+](=O)[O-])cc([N+](=O)[O-])c1
    0.1	0.1%	-4	12	11	2
CC(C)c1ccc(CCNC(=O)CCNS(=O)(=O)c2ccc(Br)cc2)cc1
    2.3	2.4%	21	2.4	-4	.
Cc1ccc(S(=O)(=O)N2CCC(=O)N(C(COCc3cccc(C(F)(F)F)c3)Cc3ccccc3)CC2)cc1 (stereo not given)
    0.8	-0.5%	1	-4.0	-7	2
COC(=O)c1ccc(-n2cc(-c3ccc(OC)cc3)[nH]c2=S)cc1
    2.9	2.9%	-7	3.9	2	0
COc1ccc(OCCNS(=O)(=O)c2cccc([N+](=O)[O-])c2)cc1
    0.5	0.6%	-2	5.2	15	-21
CC1CCCC(NCC(=O)Nc2ccc(C(N)=O)cc2)C1C (stereo not given)
    0.3	-1.1%	-2	-16	-7	-1
COc1cc(CC(=O)Nc2ccccc2N2CCCCC2)cc(OC)c1OC
    1.7	-1.2%	0	?	-51	3
O=C(O)c1ccc2c3c(ncnc13)-c1ccccc1C2=O
    0.4	6.3%	-28	11	?	-9
O=C1C2C(C(=O)N1c1nccs1)C1C=CC2C12CC2 (stereo not given)
    -0.3	0.4%	4	5.3	-6	.
CC(Sc1nnc(Cc2ccccc2)o1)C(=O)Nc1ccccc1[N+](=O)[O-] (stereo not given)
    -1.0	0.7%	-8	-1.7	-4	.
CCOC(=O)c1ccc2c(c1)nc(SCC(=O)c1ccco1)n2CC
    -0.2	-0.7%	0	-4.4	-1	-2
O=C(Nc1ccc(C(F)(F)F)cc1)c1ccccc1Br
    1.1	2.2%	22	-2.5	-4	13
O=C(O)c1cccc(-n2nnnc2SCc2ccccn2)c1
    1.1	-2.1%	7	-1.9	11	4
Cc1cc(=O)[nH]c(SCC(=O)c2ccc(C)c(C)c2)n1
    0.4	0.4%	1	1.8	-9	0
COc1ccc(OCC(=O)Nc2cccc(NC(=O)COc3ccc(OC)cc3)n2)cc1
    0.0	19%[38.3 µM]	-3	0.3	-1	-20
CCOC(=O)C1CC(=NO)c2ccc(OC)c(OC)c2C1 (stereo not given)
    0.2	-0.4%	10	6.1	11	2
O=S(=O)(c1ccc(OCC(O)CN2CCCC2)cc1)N1CCOCC1 (stereo not given)
    -0.1	2.7%	6	1.5	-6	2
Nc1nonc1-c1noc(-c2ccc(Br)o2)n1
    0.6	-0.2%	-2	-0.7	7	5
CC1=C(C(=O)Nc2ccc(C)cc2C)C(c2cccc(Cl)c2)n2nc(C(=O)OC(C)C)nc2N1 (stereo not given)
    -0.9	0.8%	-2	-4.5	10	-1
Cn1c(N)c(C(=O)COC(=O)/C=C/c2ccccc2)c(=O)n(C)c1=O
    0.9	1.9%	-14	-2.6	-15	-3

Continued:
Below each SMILES: TRPML1 agonist	PINK1 expr mod	Six1-Eya2 inh	D2 ag	D2 PAM	CtBP-E1A blk
CN(c1cccc(NC(=O)Nc2ccc(Cl)cc2)c1)S(C)(=O)=O
    -0.2	24%[38.3 µM]	0	5.0	0	8
O=C(O)CCSc1nnnn1-c1ccccc1
    1.5	0.0%	14	-2.3	-1	2
c1ccc(CSc2ccc3nnc(-c4cccnc4)n3n2)cc1
    -0.9	0.4%	-25	-9.0	1	?
COc1ccc(-n2cnc3cc(C(=O)NCCN4CCOCC4)ccc32)cc1
    0.6	0.0%	1	-2.6	-8	3
CCS(=O)(=O)c1ccc2oc(SCC(=O)NCCc3ccccc3)nc2c1
    -0.3	-1.4%	22	-2.3	1	-11
Cc1cc(C)cc(N(CC(=O)NCc2ccco2)S(=O)(=O)c2c(C)noc2C)c1
    0.1	4.6%	-11	-4.1	-6	-4
COc1ccc(C(C)=O)cc1CN1C(=O)C(C)ON=C1c1ncccc1C (stereo not given)
    -0.9	1.5%	0	-4.2	2	2
COc1ccccc1NC(=O)c1coc(=O)c(Br)c1
    1.5	2.2%	0	1.5	8	8
Cc1cccc(NC(=S)NC23CN4CN(CN(C4)C2)C3)c1
    1.6	-3.7%	1	3.4	-9	4
Cc1c(NC(=O)C(C)OC(=O)c2ncc(Cl)c(Cl)c2Cl)c(=O)n(-c2ccccc2)n1C (stereo not given)
    0.4	-5.4%	2	-8.2	-2	-7

3 of the compounds above, with each value named.
molecule: CN(c1cccc(NC(=O)Nc2ccc(Cl)cc2)c1)S(C)(=O)=O
  TRPML1 agonist = -0.2	PINK1 expr mod = 24%[38.3 µM]	Six1-Eya2 inh = 0	D2 ag = 5.0	D2 PAM = 0	CtBP-E1A blk = 8

molecule: O=C(O)CCSc1nnnn1-c1ccccc1
  TRPML1 agonist = 1.5	PINK1 expr mod = 0.0%	Six1-Eya2 inh = 14	D2 ag = -2.3	D2 PAM = -1	CtBP-E1A blk = 2

molecule: c1ccc(CSc2ccc3nnc(-c4cccnc4)n3n2)cc1
  TRPML1 agonist = -0.9	PINK1 expr mod = 0.4%	Six1-Eya2 inh = -25	D2 ag = -9.0	D2 PAM = 1	CtBP-E1A blk = ?
